MARV entry inh – Marburg virus entry inhibition; Marburg virus pseudotyped entry inhibition, cell reporter; control for the full effect not named in the record; about a third of the inactives were read at about 46 µM; Potency, µM (highest dose often 37.8 µM), without a hit: top-dose activity change, negative = inhibition, usual class: inhibitors; 300,000 compounds, 1.8% hits; AID 540276; active = well fitted inhibition curve with a large enough effect; inconclusive = small, poorly fitted or top-dose-only effect, or effect the other way; inactive = flat fitted curve, though single readings scatter; tested in HEK293 cells; about a fifth of its hits are not listed in these tables; also: % is scaled to controls: 0 for no effect and ±100 for the full control effect; luciferase read-out
2A StopGo – FMDV 2A StopGo reporter, luciferase signal; human cells with a luciferase reporter of 2A StopGo recoding; control for the full effect not named in the record; Potency, µM (doses to about 57.9 µM), for inactives: at the highest dose signal change, negative = less light; 410,000 compounds, 1.2% hits; AID 1159524; active = well fitted falling curve with a large enough effect; inconclusive = small, poorly fitted or top-dose-only effect; inactive = no such curve, though single readings can be large or run the other way; tested in HEK293T cells; also: % is scaled to controls: 0 for no effect and ±100 for the full control effect; nearly all actives have a fitted effect of over 45% in size; luciferase light after 4 h
Cruzain Triton – cruzain (T. cruzi) inhibition with detergent; purified cruzain, Z-FR-AMC fluorescence, 0.01% Triton; Potency, µM, inactives show max response, negative = inhibition, most hits filed as inhibitors; 200,000 compounds, 0.43% hits; AID 1478;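 also: plate controls were neutral wells for no effect and buffer without enzyme for full effect; nearly all actives have a fitted effect of over 40% in size; top concentration of the series not given in the record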
Target sequence (P25779 123-467 limits assumed): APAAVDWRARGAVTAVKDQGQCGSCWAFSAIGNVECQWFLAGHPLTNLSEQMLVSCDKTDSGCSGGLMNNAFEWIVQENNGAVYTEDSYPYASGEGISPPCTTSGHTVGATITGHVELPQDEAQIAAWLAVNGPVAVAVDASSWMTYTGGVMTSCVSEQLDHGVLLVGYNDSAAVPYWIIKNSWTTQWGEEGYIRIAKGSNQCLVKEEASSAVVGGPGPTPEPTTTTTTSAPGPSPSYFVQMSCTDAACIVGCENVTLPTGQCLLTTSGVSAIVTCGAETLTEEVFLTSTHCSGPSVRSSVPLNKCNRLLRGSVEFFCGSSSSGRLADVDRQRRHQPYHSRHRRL
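Z-FR-AMC hydrolysis (2 uM substrate) by cruzain (1.5 nM) monitored kinetically at ex 360/em 450 nm after 15 min room-temperature compound exposure; 0.01% Triton X-100, pH 5.5, 5 mM DTT.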
Cruzain inh noDet – cruzain (T. cruzi) inhibition without detergent; P25779; purified cruzain, Z-FR-AMC fluorescence, no detergent; Potency, µM, inactives show max response, negative = inhibition, actives largely listed as inhibitors; 200,000 compounds, 2.3% hits; AID 1476;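 also: plate controls were enzyme without inhibitor for no effect and buffer without enzyme for full effect; nearly all actives have a fitted effect of over 40% in size; top concentration of the series not given in the record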
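Detergent-free condition (0.00005% Triton X-100) in acetate buffer pH 5.5 with DTT. 1.5 nM enzyme and compound were pre-mixed 15 min, then 2 uM Z-FR-AMC substrate added; reaction progress from fluorescence change between first and third reads (60 s).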
SARS PLpro yeast – inhibitors of SARS-CoV papain-like protease in yeast | S. cerevisiae expressing SARS-CoV PLpro, growth rescue; control for the full effect not named in the record | Potency, µM (top dose mostly 32.9 µM), inactives show top-dose activity, positive = growth rescue | 330,000 compounds, 0.19% hits | AID 485353; active means well fitted rising curve with a large enough effect; inconclusive means small, poorly fitted or top-dose-only effect; inactive means no such curve, though single readings can be large or run the other way; also: 0% is about no effect; nearly all actives have a fitted effect of over 55% in size; growth read by luminescence after 48 h
Lassa entry inh – inhibitors of Lassa virus binding or cell entry | Lassa virus pseudotype entry inhibition, cell reporter; control for the full effect not named in the record | Potency, µM (highest dose often 37.9 µM), without a hit: at the highest dose activity change, negative = inhibition, usual class: inhibitors | 300,000 compounds, 1.2% hits | AID 540256; active means well fitted inhibition curve with a large enough effect; inconclusive means small, poorly fitted or top-dose-only effect, or effect the other way; inactive means flat fitted curve, though single readings scatter; tested in HEK293 cells; also: % is scaled to controls: 0 for no effect and ±100 for the full control effect; nearly all actives have a fitted effect of over 50% in size; luciferase read-out
RE007 growth inh – less growth of the S. pombe RE007 Vpr strain | S. pombe RE007 Vpr strain, BacTiter-Glo ATP luminescence, 24 h; control for the full effect not named in the record | Potency, µM (series often up to 92.2 µM), for the others: at the top dose activity change, negative = less growth | 360,000 compounds, 0.21% hits | AID 651644; active = well fitted falling curve with a large enough effect; inconclusive = small, poorly fitted or top-dose-only effect; inactive = no such curve, though single readings can be large or run the other way;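 also: % is scaled to controls: 0 for no effect and ±100 for the full control effect; nearly all actives have a fitted effect of over 50% in size; the assay follows cell death caused by Vpr and the record does not say whether a fall means rescue or toxicity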
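Fission yeast RE007 carrying one integrated HIV-1 vpr copy, seeded at OD 0.01 in PMG+AL medium with 23 nL pinned compound. Grown 24 h at 30 degrees; viability read by BacTiter-Glo luminescence after 5 min.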
NS1 function inh – inhibitors of influenza NS1 protein function | Potency, µM (titrated, usually from 46.1 µM), without a hit: top-dose activity, positive = more growth | S. cerevisiae slowed by influenza A NS1, growth recovery by OD600 | 270,000 compounds, 0.4% hits; active means well fitted rising curve with a large enough effect; inconclusive means small, poorly fitted or top-dose-only effect; inactive means no such curve, though single readings can be large or run the other way; also: nearly all actives have a fitted effect of over 50% in size
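Compounds were scored for reversing the slow growth caused by influenza A NS1 in S. cerevisiae, measured by optical density at 600 nm. Assay medium contained 2% galactose at pH 6.0; NS1-free yeast of the same strain were the positive control.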
* hit, by the source's call; ? = inconclusive; . = no result given; & = joins results of further samples; [ ] = dose if it differs, or a comment. Unless noted, calls follow the shape of the dose curve; as a rule, active = well fitted curve in the direction sought with a large enough effect; inconclusive = small, poorly fitted or top-dose-only effect, or another doubt; inactive = no such curve, though single readings can be large; an effect the other way counts as inactive or inconclusive. Potency is read from the fitted curve at half-maximal effect.

SMILES	MARV entry inh	2A StopGo	Cruzain Triton	Cruzain inh noDet	SARS PLpro yeast	Lassa entry inh	RE007 growth inh	NS1 function inh
NC(=O)c1c(NC(NC(=O)c2ccco2)C(=O)c2ccc(Cl)cc2)sc2c1CCCC2 (stereo not given)	?	.	-12%	-15%	-6%	4%	4%	25%
CC1(C)CC(=O)N(c2ccc(Cl)c(Cl)c2)C(=O)C1	-2%	-5%	.	.	-1%	7%	3%	1%
Cc1ccc(-c2nnc(-c3cc(C)on3)o2)cc1	.	8%	.	.	1%	.	-16%	-6%
CCC1(CC)N([O-])C(C)=C(c2ccccc2)[N+]1=O	5%[46.1 µM]	-10%	3.1%	-3%	0%	-12%	-2%	-17%
COc1ccccc1N1CCN(C(=O)C2CCN(C(=O)c3ccccc3Cl)CC2)CC1	5%[46.1 µM]	-19%	.	.	0%	14%[46.1 µM]	2%	-8%
COc1ccc(C2c3c(n(C)c4ccccc34)C(=O)N2CC(=O)Nc2cc(Cl)ccc2C)cc1 (stereo not given)	.	-1%	-5.7%	-14%	.	6%[46.1 µM]	.	.
O=C(NCc1ccccc1)C(c1ccc(F)cc1)N(Cc1cccs1)C(=O)c1cnccn1 (stereo not given)	4%[46.1 µM]	-18%	-4.0%	4%	11%	-7%	2%	-4%
CCN(CC)C(=O)CCSc1nnc(-c2ccncc2)o1	-8%	-2%	2.3%	1%	7%	?	7%	1%
Cn1c(=O)[nH]c(=O)c2c1nc(Br)n2Cc1ccccc1F	3%&2%	-14%	3.1%	8%	2%	0%	2%	5%
COc1ccc(S(=O)(=O)N2Cc3ccccc3CC2C(=O)Nc2ccc(C)cc2)cc1OC (stereo not given)	.	-17%	-3.5%	?	.	-8%[46.1 µM]	.	.
CCOC(=O)N1CCN(C(=O)CCCn2c(=S)[nH]c3ccsc3c2=O)CC1	-27%[46.1 µM]	-3%	.	.	0%	-7%	37%	.
CN1C2C=C(N(C(=O)c3ccc(Cl)cc3)c3ccccc3)CC1CC2 (stereo not given)	-1%	0%	-1.5%	0%	5%	-20%	4%	-7%
COc1ccc(OC)c(N2C(N)=C(C#N)C(c3ccc(OC)c(O)c3)C3=C2CC(C)(C)CC3=O)c1 (stereo not given)	-15%	-8%	.	.	0%	?	-14%	4%
CCOc1ccc(CNS(=O)(=O)c2cc3c(cc2C)NC(=O)CO3)cc1OC	.	12%	2.4%	-3%	.	2%[46.1 µM]	.	.
Cc1cc(C)c(C)c(OCC(=O)N2CCOCC2)c1	10%	-15%	2.6%	-7%	0%	8%	-3%	6%
CN1Cc2c(c(C#N)c(N)n(C)c2=S)CC1(C)C	.	1%	.	.	0%	.	-5%	3%
Brc1ccccc1OCCOc1cccc2cccnc12	?	11%	-6.5%	6%	-16%	14%	8%	-6%
Cc1nn2c(NCCCN3CCOCC3)c3c(nc2c1-c1ccccc1)CCC3	?	-25%	-1.6%	-5%	-3%	1%	3%	-5%
CC(=O)[C@H]1CCC2C3CC[C@H]4C[C@@H](O)CC[C@]4(C)C3CC[C@@]21C (stereo not given in full)	-10%	-29%	.	.	-6%	1%	-7%	.
O=C1CN(C(=O)COc2ccc(Cl)cc2)C(c2ccc(F)cc2)c2cc(Br)ccc2N1 (stereo not given)	?	-28%	-8.6%	?	.	?	.	.
COc1ccc(C(=O)Nc2cc(C)on2)cc1	?	?	0.1%	-13%	-1%	?	-8%	-15%
CCC(CO)NC1=CC(=O)CCC1 (stereo not given)	0%[46.1 µM]	-9%	.	.	0%	3%[46.1 µM]	-18%	.
Cc1ccc2nc(SCC(=O)c3c(C)[nH]c4ccccc34)[nH]c2c1	-20%	29%	-10%	?	6%	18%	1%	?
Cc1nc2ccccc2c(C)c1C(=O)c1ccccc1	?	-28%	.	.	0%	-10%	-7%	.
Cc1ccc(NC(=O)COC(=O)C2CC3C=CC2C3)cc1S(=O)(=O)N1CCCCC1 (stereo not given)	-16%	?	-8.5%	3%	7%	?	-2%	6%

New compounds follow
SMILES	MARV entry inh	2A StopGo	Cruzain Triton	Cruzain inh noDet	SARS PLpro yeast	Lassa entry inh	RE007 growth inh	NS1 function inh
COc1ccc(CNC(=S)N2CCN(S(=O)(=O)c3cccc(F)c3)CC2)cc1	.	0%	.	.	1%	.	2%	-4%
Cc1nnc(SCc2cc(=O)n3cccc(C)c3n2)s1	.	-4%	-4.7%	-15%	.	17%[46.1 µM]	.	.
COc1cccc(C(C(=O)NCC2CCCO2)N(C(=O)Cn2nnc3ccccc32)c2ccccc2C(C)=O)c1OC (stereo not given)	0%[46.1 µM]	40%[activator]	.	.	0%	-11%[46.1 µM]	8%	-2%
Cc1cc(Cl)ccc1OCC(=O)Nc1nc(-c2cccnc2)cs1	.	-8%	.	.	1%	.	15%	9%
CCCC(=O)Nc1cccc(NC(=O)CN2CCN(c3ccccc3OC)CC2)c1	-16%	0%	1.0%	6%	-5%	?	21%	-1%
O=C(CSc1nc2ccccc2s1)Nc1ccc(C(=O)O)cc1	.	2%	.	.	0%	.	12%	-4%
CCn1cc2nc(SCC(=O)Nc3cc(OC)ccc3OC)n(Cc3ccc(Cl)cc3)c(=O)c2n1	13µM*	-5%	-4.7%	15%	.	-2%[46.1 µM]	.	.
CCOc1ccc(-c2csc(NC(=O)C3CCCO3)n2)cc1 (stereo not given)	?	-2%	-5.6%	-6%	-10%	-32%	7%	-16%
NC(=O)c1ccc(C(F)(F)F)n(Cc2ccc(F)c(F)c2)c1=O	-7%[46.1 µM]	-16%	.	.	-2%	-8%	-6%	.
CC(=O)c1cccc(NC(=O)C(C)n2c(=O)cc(-c3ccccc3)c3c(C)nn(C)c32)c1 (stereo not given)	.	3%	7.7%	11%	.	-24%[46.1 µM]	.	.
O=C(O)COn1c(-c2ccccc2)nc2ccc(Cl)cc21	?	20%	.	.	0%	1%[46.1 µM]	1%	0%
Cc1ccc(NS(=O)(=O)c2c(C(=O)N3CCCCCC3)c(C)n(C)c2C)c(C)c1	4%[46.1 µM]	30%	.	.	2%	-23%[46.1 µM]	-2%	-5%
CN(C)c1ccc(C(=O)Nc2cc(C(F)(F)F)ccc2-n2cncn2)cc1	4%[46.1 µM]	-10%	-7.3%	-2%	0%	-15%	-20%	-21%
O=[N+]([O-])c1cccc(-c2nc3ccccc3s/c2=N/O)c1	0%[46.1 µM]	6%	.	.	0%	0%[46.1 µM]	10%	-40%
CC(=O)Nc1ccc(C(=O)OCC(=O)NC2CCCCCCC2)cc1	16%[46.1 µM]	10%	.	.	0%	7%	10%	.
Cc1cccc(NC(=S)N2CCCCC2c2cccnc2)c1C (stereo not given)	4%[46.1 µM]	-3%	.	.	-1%	9%	10%	-4%
O=C(Cn1cnc2c(nnn2-c2ccc(F)cc2)c1=O)N1CCCc2ccccc21	-1%	.	0.2%	-30%	-1%	-14%	0%	-15%
COc1cccc(C(C(=O)NCC2CCCO2)N(CC2CCCO2)C(=O)CN2C(=O)c3ccccc3S2(=O)=O)c1 (stereo not given)	0%[46.1 µM]	25%	.	.	0%	.	-1%	0%
O=C(NCC(c1cccnc1)N1CCOCC1)c1ccco1 (stereo not given)	?	-14%	-0.2%	3%	.	-11%	23%	8%
CCOC(=O)N1CCN(C(=O)CCc2ccc(S(=O)(=O)NC(C)(C)C)cc2)CC1	.	-4%	.	.	7%	.	3%	9%
O=C(N[C@@H](Cc1ccccc1)C(=O)OCc1ccccc1)c1nc[nH]c1C(=O)N[C@@H](Cc1ccccc1)C(=O)OCc1ccccc1	.	14%	.	.	1%	.	9%	7%
COc1cc(CNC(=O)c2cc3n(n2)CCCN(Cc2ccc(C)cc2)C3=O)cc(OC)c1OC	.	-4%	-0.1%	?	.	?	.	.
COc1ccc(OCCn2c(N)nc3ccccc32)cc1	-24%	?	.	.	-4%	9%	7%	-20%
CCN(C(=O)CSc1nc(-c2ccccc2)no1)c1ccccc1	.	-21%	-7.8%	-5%	.	?	.	.
c1ccc(OCc2nc3ccccc3s2)cc1	?	3%	8.0%	-6%	0%	?	-14%	-11%

The results go on:
SMILES	MARV entry inh	2A StopGo	Cruzain Triton	Cruzain inh noDet	SARS PLpro yeast	Lassa entry inh	RE007 growth inh	NS1 function inh
COc1ccc(C(NC(=O)CNC(C)=O)C(=O)Nc2ccc3c(c2)OCCO3)cc1 (stereo not given)	-1%[46.1 µM]	3%	4.7%	-13%	4%	-2%	0%	0%
CCCCNC(=O)c1c(O)c2cccc3c2n(c1=O)CCC3	11%	-26%	-0.1%	12%	-5%	2%	1%	3%
Cc1c(CC(=O)O)c(=O)oc2c(C)c(OCc3ccc(F)cc3Cl)ccc12	?	-10%	.	.	1%	-4%[46.1 µM]	13%	-9%
Cc1ccc(-c2ccc(/C=N/NC(=O)Cc3nnc(N)s3)o2)cc1Cl	.	-16%	.	.	1%	.	-2%	?
O=P(O)(O)Cc1ccccc1OP(=O)(c1ccccc1)c1ccccc1	-19%	-24%	7.5%	0%	1%	7%	-12%	-2%
CCOc1cc2[nH]c(=O)n(CCCCC(=O)NC3CCCCCC3)c(=O)c2cc1OCC	-3%	7%	3.0%	6%	11%	2%	-22%	6%
Cc1c(C(=O)NCc2ccc3c(c2)OCO3)oc2ccc(S(=O)(=O)N3CCC(C)CC3)cc12	?	?	-3.4%	?	16%	?	32%	-2%
O=C(CCC(=O)NNC(=S)Nc1ccccc1)NCc1ccccc1	16%	45%[activator]	1.7%	-9%	.	-1%	17%	11%
c1cc2c(cc1-c1[nH]ncc1CN1CC3C[C@@H]4CC1C[C@H](C3)C4)OCO2	-18%	4%	.	.	2%	11%[46.1 µM]	6%	7%
Cc1cc(-n2c(SCC(=O)NCCC3=CCCCC3)nc3n[nH]c(C)c3c2=N)ccc1Cl	.	2%	.	.	-1%	.	5%	0%
O=C(CCS(=O)(=O)c1cccc2nsnc12)N1CC(=O)N(CCc2ccccc2)C(=O)C1	0%&0%	0%	-7.8%	1%	1%	25%	9%	-10%

Screening data: PubChem BioAssay, National Center for Advancing Translational Sciences (NCATS)
